Compound activity from PubChem.
Vaccinia Venus: qHTS for Stage-Specific Inhibitors of Vaccinia Orthopoxvirus: Venus Reporter Primary qHTS; Vaccinia virus Venus reporter expression, fluorescence; Potency, µM (highest dose often 36.5 µM), without a hit: at the highest dose activity change, negative = inhibition, most hits filed as inhibitors; hit rate 0.46% among 330,000; AID 720580, 2013; active means well fitted inhibition curve with a large enough effect; inconclusive means small, poorly fitted or top-dose-only effect; inactive means no such curve, though single readings can be large or run the other way; tested in A549 cells; also: nearly all actives have a fitted effect of over 30% in size; inactives centre near -10
Vaccinia mCherry: qHTS for Stage-Specific Inhibitors of Vaccinia Orthopoxvirus: mCherry Reporter Primary qHTS; hit rate 0.63% among 310,000; AID 720579, 2013; Vaccinia virus mCherry reporter infection, fluorescence; about a quarter of the inactives have no number; Potency, µM (highest dose often 36.5 µM), inactives show at the highest dose activity change, negative = inhibition, most hits filed as inhibitors; active = well fitted inhibition curve with a large enough effect; inconclusive = small, poorly fitted or top-dose-only effect; inactive = no such curve, though single readings can be large or run the other way; tested in A549 cells; also: nearly all actives have a fitted effect of over 35% in size; inactives centre near -10
The depositor's hits bear a star; i = inactive; ? = inconclusive; / = no result given; & = joins results of further samples; [ ] = dose if it differs, or a comment. % is scaled to controls: 0 for no effect and ±100 for the full control effect; potency is read from the fitted curve at half-maximal effect.

SMILES	Vaccinia Venus	Vaccinia mCherry
CCOC(=O)c1cc([N+](=O)[O-])cc([N+](=O)[O-])c1Sc1ncnc2nc[nH]c12	-19%	?
O=C(O)C1C2C=CC(C2)C1C(=O)NCc1ccc(Cl)cc1Cl (centres undefined)	-12%	-17%
Cc1ccc(NC(=O)C2COc3ccccc3O2)nc1 (centres undefined)	-11%	/
O=C(Cc1ccc(Cl)cc1)Nc1ccc(S(=O)(=O)Nc2cnc3ccccc3n2)cc1	-5%	-15%
CCOC(=O)Cn1c(=O)n(-c2ccccc2OC)c2nc(-c3ccccc3C)nc(C(N)=O)c21	?	29%
COc1ccc(C(O)c2ncc(-c3ccccc3Cl)[nH]2)cc1F (centres undefined)	-7%	17%
CN(C)CCCNC(=O)C(=O)Nc1cc2c3c(c1)CC(=O)N3CCC2	29%[7.34 µM]	17%[7.34 µM]
COCCn1c(=S)[nH]c2cc(C(=O)NC3CCCCCC3)ccc2c1=O	-21%	i
COC(=O)C(NC(C)=O)(Nc1sc2c(c1C(N)=O)CCCC2)C(F)(F)F (centres undefined)	-12%	i
CCC(C)[C@@H](C(=O)Nc1ccc2c(c1)OCO2)N1Cc2ccccc2C1=O (some centres undefined)	-8%	23%
COc1cc(-c2noc(C)c2C(=O)NCCCN2CCCC2=O)cc(OC)c1OC	-7%	i
CCOC(=O)C1(CCOc2ccccc2)CCN(C2Cc3ccccc3C2)CC1	-5%	-18%
CCOC(=O)[C@H]1[C@H]2COc3ccc(Cl)cc3[C@@H]2N2C(=O)c3ccc(F)cc3NC(=O)[C@@]12C	-13%	-23%
O=C(C1CCN(S(=O)(=O)c2cccc3nonc23)CC1)N1CCN(c2ccccc2)CC1	-3%	-7%
COC(=O)c1c(NC(=O)COc2ccc(C)cc2Br)sc2c1CCCC2	7%	-2%

The final 5 entries of the part above come first, to join the parts.
SMILES	Vaccinia Venus	Vaccinia mCherry
COc1cc(-c2noc(C)c2C(=O)NCCCN2CCCC2=O)cc(OC)c1OC	-7%	i
CCOC(=O)C1(CCOc2ccccc2)CCN(C2Cc3ccccc3C2)CC1	-5%	-18%
CCOC(=O)[C@H]1[C@H]2COc3ccc(Cl)cc3[C@@H]2N2C(=O)c3ccc(F)cc3NC(=O)[C@@]12C	-13%	-23%
O=C(C1CCN(S(=O)(=O)c2cccc3nonc23)CC1)N1CCN(c2ccccc2)CC1	-3%	-7%
COC(=O)c1c(NC(=O)COc2ccc(C)cc2Br)sc2c1CCCC2	7%	-2%
CCCCNC(=O)CN(CCc1ccccc1)S(C)(=O)=O	-7%	i
Cn1c(SCC#N)nc2ccccc2c1=O	-10%	-3%
Cn1cccc1C(=O)OCC(=O)Nc1sccc1C#N	6%	i
O=C(O)c1ccc(N/N=C/C2=Cc3ccccc3OC2)cc1	?	?
O=C1C[C@H]2C=CCc3cccc(c32)CN1Cc1ccc(Br)cc1	-14%	-4%
COc1ccc(-c2c(C#N)c(SCC(=O)c3cc4ccccc4oc3=O)nc(C)c2C(=O)Nc2ccccc2)cc1	-7%	-10%
Fc1ccc(CSc2nc3ccccc3[nH]2)cc1	-3%	-8%
COC(=O)c1ccc(N2CCN(C)CC2)c(NC(=O)c2ccc(-c3ccc(Cl)cc3)o2)c1	-13%	i
Cc1ccc(S(=O)(=O)CCC(=O)N(C)C2CCCCC2)cc1	-1%	-13%
CN(C)S(=O)(=O)c1ccc(C(=O)NCC(=O)N/N=C/c2ccccc2)cc1	-8%	i
CCn1c(Cn2nnc(-c3ccccc3)n2)nnc1SCC(=O)Nc1cccc(C)c1C	-12%	-20%
Cc1ccc(C(=O)OCC(=O)N2CC(=O)Nc3ccccc32)s1	-14%	i
COc1ccc(Cn2ccc3nc(C)c(C(=O)Nc4ccc(F)cc4)cc3c2=O)cc1	-15%	-11%
O=C(Nc1nnc(C2=COCCO2)o1)c1ccc([N+](=O)[O-])cc1	-28%	i
O=C(O)c1ccc(CSc2nnc(SCc3ccccc3)s2)cc1	-8%	-2%
O=C(CNC(=O)c1ccc(Br)cc1)NCC(=O)OCc1ccc(Cl)cc1	-10%	-23%
COc1cccc(-n2c(SCC(=O)NCCC3=CCCCC3)nc3n[nH]c(C)c3c2=N)c1	-30%	-30%
COc1ccc(C(=O)N2CCC(C)(C(=O)O)C2)c(OC)c1 (centres undefined)	-11%	i
Cc1cccc(NC(=O)Cn2c(=O)oc3cc(S(=O)(=O)N4CCCC4)ccc32)n1	-9%	i
Cn1c(SCC(=O)Nc2cccc(S(=O)(=O)NC3=NCCCCC3)c2)nnc1-c1ccccc1	-2%	i
N#C/C(=N\Nc1ccc(Br)cc1)C(=N)N1CCOCC1	-10%	-9%
O=C(NCC1CC1)c1ccc2sc([C@@H]3O[C@H](CO)[C@H](O)[C@H](O)[C@H]3O)nc2c1	15%	8%
Cc1cc(C(=O)NCC(c2cccs2)N2CCOCC2)ccc1[N+](=O)[O-] (centres undefined)	-27%	-5%
O=C(O)c1ccccc1N(Cc1ccccc1)C(=O)CO/N=C/c1ccccc1	-19%	?
CCOC1CCCCC1NS(=O)(=O)c1ccc(Cl)cc1 (centres undefined)	-13%	-17%
O=C(CCC(=O)c1ccccc1)Nc1ccccc1	2%	i
CC1CC(Nc2ccccc2)c2ccccc2N1C(=O)c1cccnc1 (centres undefined)	?	?
CN(Cc1nccn1C)C(=O)c1ccc2nc(Cc3ccccc3F)oc2c1	-10%	-23%
O=C(NC1(C(F)(F)F)C(=O)Nc2c1c(=O)[nH]c(=O)n2CCc1ccccc1)c1ccc(Cl)cc1Cl (centres undefined)	6%	3%
Cc1ccc(-c2nc(CS(=O)CC(=O)N3CCN(c4ccc(F)cc4)CC3)c(C)o2)cc1 (centres undefined)	-29%	-25%
CCn1c(=NC(=O)CS(=O)(=O)c2ccc(F)cc2)sc2cccc(OC)c21	-19%	-10%
CCCCN(Cc1cc2cc(OC)ccc2[nH]c1=O)C(=O)c1ccco1	-9%	/
CCOc1cccc2sc(N(Cc3cccnc3)C(=O)c3ccc(C#N)cc3)nc12	-3%	-13%
COc1ccc(Sc2nc(-c3ccccn3)ncc2OC)cc1	?	?
OC1(c2ccc(F)cc2)CCN(Cc2nnnn2Cc2cccs2)CC1	-3%	-9%
CN(C)c1ccc2c(c1)C(=NO)c1ccccc1-2	?	-21%
COCC(=O)N1CCC(Oc2ccc(C(=O)N3C[C@H]4CC[C@H]3C4)cc2)CC1	-11%	i
COCCNC(=O)c1cc(S(=O)(=O)N2CCCCC2)ccc1N1CCOCC1	-3%	-9%
Nc1ccc(C(=O)NC2CCSc3ccccc32)cc1[N+](=O)[O-] (centres undefined)	?	?
COc1ccc(N(C)C(=O)C2CCN(S(=O)(=O)c3cccc4nonc34)CC2)c(OC)c1	-4%	-20%
O=C(Nc1ccccc1C(F)(F)F)n1ncc2cc(Cl)ccc21	-6%	1%
CN1/C(=C/c2cccc[n+]2CCO)Sc2ccccc21	-1%	i
O=C(COc1ccccc1Cl)Nc1ccccc1C(=O)N1CCOCC1	-8%	-13%
CCc1ccc(C(=O)OCC(=O)NCC(F)(F)F)cc1	-15%	-9%
COc1ccc(-c2nc(CSc3nc4ncccc4[nH]3)c(C)o2)cc1OC	-4%	-9%
C=CCSc1nc(C)c2cc(C)cc(C)c2n1	-10%	-10%
Cc1ccc(C(=O)Nc2cccc(NC(=O)c3ccc(C)o3)n2)o1	-6%	-12%
COc1ccc(CN2CC(=O)N(c3ccc(C)cc3)C2=S)cc1OC	-12%	-15%
O=C1N=C(N2CCN(c3ccccc3)CC2)S/C1=C\c1cn[nH]c1-c1ccccc1	-3%	-17%
COc1cccc(NC(=O)COc2ccccc2C(=O)Nc2ccccc2)c1	-19%	-2%
CCN(N=O)c1ccc(C=C2C=Cc3ccccc32)cc1	-4%	i
O=[N+]([O-])c1ccc(Cl)c(S(=O)(=O)Nc2cccc(-c3ccc(N4CCOCC4)nn3)c2)c1	-25%	?
CCOC(=O)CNc1c(-c2ccc(Cl)cc2)nc2cnccn12	-4%	-20%
O=C(CCCN1C(=O)c2ccccc2C1=O)Nc1ccccc1C(=O)N1CCOCC1	-13%	/
CCOc1ccc(S(=O)(=O)N2CCCCC2)cc1NC(=O)C1CCCC1	-28%	?
CCOc1ccc(NC(=O)CN(C)C(=O)c2cccnc2Sc2ccc(C)c(C)c2)cc1OCC	-17%	-13%
CCOC(=O)CC1COc2ccccc2N1C(=O)c1ccc(F)cc1 (centres undefined)	-2%	i
CCCCCCN1CCN(C2CN(Cc3cn(Cc4ccccc4)nn3)S(=O)(=O)C2)CC1 (centres undefined)	-2%	i
Cn1c(=O)n(C)c2cc(/C=N/NC(N)=S)ccc21	-11%	?
CC(=O)Nc1ccc2c(c1)Cc1ccc(Cl)cc1-2	-22%	?
Additional records.
SMILES	Vaccinia Venus	Vaccinia mCherry
O=C(NCN1CCOCC1)c1cnccn1	-11%	i
O=C(CCCc1ccccc1)NCc1ccc(F)cc1	-8%	i
COC(=O)c1c(N)[nH]c(C(=O)c2ccccc2)c1-c1ccccc1Br	-7%	-8%
O=C(Nc1ccc(Cl)cn1)c1ccccc1-c1ccccc1	-4%	-7%
COc1ccc(NC(=O)c2c(NC(=O)c3ccncc3)sc3c2CCC(C(C)(C)C)C3)cc1 (centres undefined)	?	10µM*
C=CCn1c(SCC(=O)c2c(N)n(C)c(=O)n(C)c2=O)nc2sc(C)c(C)c2c1=O	-10%	i
COC(=O)c1cc2occc2n1Cc1cccc(C)c1	-10%&1%	-10%&-6%
CC(C)NC(=S)N1CCN(S(=O)(=O)c2cccc(C(F)(F)F)c2)CC1	-10%	3%
O=C1C[C@@H]2c3c(cccc3CN1Cc1ccccc1Br)C[C@@H](O)[C@H]2O	-9%&-14%	?
CCC1(c2ccc(F)cc2)NC(=O)N(CC(=O)Nc2ccccc2Cl)C1=O (centres undefined)	-11%	-12%
CCc1ccccc1NC(=O)N1CCc2c([nH]c3ccccc23)C1c1ccc(C)cc1 (centres undefined)	-14%	-9%
COc1c(C(=O)NNC(=O)c2ccccc2)csc1Br	-25%	i
Cc1ccccc1N(CC(=O)NC(C)(C)C)C(=O)CS(=O)CC(=O)Nc1ccc2c(c1)OCO2 (centres undefined)	-5%	i
COc1ccc(C2NC(=S)NC(O)(C(F)(F)F)C2C(=O)c2cccs2)cc1 (centres undefined)	0%	-16%
COc1ccc(N2CCN(C(=O)COC(=O)CNC(=O)c3ccc(Cl)cc3Cl)CC2)cc1	-6%	-20%
O=C(OCc1ccccc1)N1C[C@H](O)[C@H](O)C[C@@H]1c1c(Cl)cccc1Br	-2%	32%[activator]
O=C(Nc1ccccc1)C1CCN(S(=O)(=O)c2ccc3c(c2)CCCN3C(=O)C2CCC2)CC1	-14%	-13%
COc1ccc(-c2c(C3=CCCCC3)oc3ccc(-c4ccc5c(c4)OCO5)cc23)cn1	8%	i
CC(=O)OC1CC(c2cc(C(C)(C)C)c(O)c(C(C)(C)C)c2)=NO1 (centres undefined)	-14%	?
CCOC(=O)N1CCN(c2cc(=O)n(-c3cccc(Br)c3)c(=O)[nH]2)CC1	-2%	i
C[C@@H](NC(=O)[C@@H]1Cc2ccccc2CN1C(=O)OC(C)(C)C)C(=O)NCC1CCCO1 (some centres undefined)	-6%	-12%
CC(C)OP(=O)(OC(C)C)C(O)c1cccc([N+](=O)[O-])c1 (centres undefined)	6%	i
Cc1cc2nnc(SCC(=O)NCC3CCCO3)n2c2ccccc12 (centres undefined)	-4%	-4%
Cc1cc(=O)n2nc(N3CCC(C(=O)NCc4ccc(F)cc4)CC3)sc2n1	0%[7.34 µM]	-3%[7.34 µM]
Cc1cc(Nc2cccc(F)c2)n2nc(C)nc2n1	-8%	0%
COc1ccc(-c2cc(C(=O)O)sc2C)cc1	-2%	10%
CCOc1ccc(C(=O)Nc2ccc3nc(SCc4ccccc4)sc3c2)cc1	10µM*	?
CCOCCc1nnc(NC(=O)c2cccc(F)c2)s1	-17%	-14%
CCOc1ccc(CN(CCc2ccc3c(c2)OCO3)Cc2cccc(Br)c2)cc1	-18%	0%
COc1ccc(NC(=O)c2cc(C)nc3c2c(C)nn3-c2cccc(Cl)c2C)c(OC)c1	-23%	-16%

Laid out differently: results already given
Molecule | Vaccinia Venus | Vaccinia mCherry
Cc1cc(=O)n2nc(N3CCC(C(=O)NCc4ccc(F)cc4)CC3)sc2n1 | 0%[7.34 µM] | -3%[7.34 µM]
Cc1cc(Nc2cccc(F)c2)n2nc(C)nc2n1 | -8% | 0%
COc1ccc(-c2cc(C(=O)O)sc2C)cc1 | -2% | 10%
CCOc1ccc(C(=O)Nc2ccc3nc(SCc4ccccc4)sc3c2)cc1 | 10µM* | ?

Record cards, from the list above. Order of screens: Vaccinia Venus | Vaccinia mCherry
`COc1ccc(-c2c(C3=CCCCC3)oc3ccc(-c4ccc5c(c4)OCO5)cc23)cn1` is entered as 8% | i
`CC(=O)OC1CC(c2cc(C(C)(C)C)c(O)c(C(C)(C)C)c2)=NO1` (centres undefined) is entered as -14% | ?

Other entries
SMILES	Vaccinia Venus	Vaccinia mCherry
C/C(=N\NC(=O)c1cccc(S(=O)(=O)N2CCOCC2)c1)c1ccc(C#N)cc1	-12%	i
O=[N+]([O-])c1cccc(N=Cc2ccccc2)c1	12%	i
CCOC(=O)C1CCN(C(=O)Cn2ncc3c4ccccc4n(Cc4ccc(F)cc4)c3c2=O)CC1	-13%	-3%
COc1ccc(N(CC(=O)N2CCN(c3cccc(OC)c3)CC2)S(=O)(=O)c2c(C)noc2C)cc1	-10%	-8%
Cc1ccc(NC(=O)Cn2nnc(C(=O)NCCc3ccccc3)c2N)cc1C	-6%	i
Cc1nc2ccccc2c(=O)n1NC(=O)c1cccc(Cl)c1	5%	-2%
